STK33 kinase inh: inhibitors of purified STK33 kinase, primary screen, biochemical, ADP-Glo luminescence, homogeneous, cell-free; Serine/threonine-protein kinase 33 (Homo sapiens), Q9BYT3; MBP phosphorylation; inhibition, % at 10 µM; 320,000 compounds, 0.073% hits; AID 2661, 2010;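 active = inhibition at or above 25%, using the most active replicate where run in duplicate; inactive = inhibition below 25%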
Target sequence (Q9BYT3 whole entry, looked up): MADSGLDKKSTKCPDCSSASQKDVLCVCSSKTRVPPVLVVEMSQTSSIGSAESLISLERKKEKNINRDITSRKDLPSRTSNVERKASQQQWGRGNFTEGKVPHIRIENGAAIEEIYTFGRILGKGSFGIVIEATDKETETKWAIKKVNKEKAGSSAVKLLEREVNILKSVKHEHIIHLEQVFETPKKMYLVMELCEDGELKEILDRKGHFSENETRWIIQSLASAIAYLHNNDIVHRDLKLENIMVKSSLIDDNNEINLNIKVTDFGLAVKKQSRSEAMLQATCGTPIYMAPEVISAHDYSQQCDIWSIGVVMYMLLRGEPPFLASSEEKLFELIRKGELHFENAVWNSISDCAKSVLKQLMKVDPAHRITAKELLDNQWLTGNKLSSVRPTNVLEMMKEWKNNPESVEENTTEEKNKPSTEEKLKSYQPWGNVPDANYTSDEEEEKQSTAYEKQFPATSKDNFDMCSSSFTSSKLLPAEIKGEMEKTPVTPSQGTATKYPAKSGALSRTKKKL
The depositor's hits bear a star; & = joins results of further samples.

cpd	mol	STK33 kinase inh
1	CCN(C(=O)COC(=O)c1c(-c2ccccc2)noc1C)c1c(N)n(Cc2ccccc2)c(=O)[nH]c1=O	0.4
2	CCN(c1ccccc1)S(=O)(=O)c1cc2c3c(c1)CCN3C(=O)CC2	2.0
3	O=C(NCCCCCNC(=O)c1cccnc1)c1cccnc1	-1.5
4	C=CCn1c(SCC(=O)NCCO)nc2sc(C)c(C)c2c1=O	-1.1
5	COc1ccc(S(=O)(=O)NCc2ccccn2)cc1NC(=O)c1ccc(C)cc1	0.2
6	C/C(=C\c1ccccc1)CN1CCN(c2cccc(Cl)c2)CC1	0.9
7	O=C1C2C3C=CC(C4CC34)C2C(=O)N1/N=C/c1ccc(-c2ccccc2[N+](=O)[O-])o1 (configuration not stated)	-1.0
8	O=C(OCC(=O)c1ccccc1Br)c1ccccn1	0.0
9	O=C(CN(C(=O)c1csnn1)c1ccc(F)cc1)NCc1ccc(F)cc1	-0.1
10	COC(=O)c1cc(NC(=O)N2c3ccccc3Sc3ccccc32)cc(C(=O)OC)c1	-2.3
11	O=C(CC1C(=O)NCCN1Cc1ccc(-c2ccccc2)cc1)NCC1CC1 (configuration not stated)	-1.6
12	O=C(NCc1ccc(Cl)cc1)N1CCN(S(=O)(=O)c2ccccc2)CC1	-0.1
13	O=C(Nc1ccccc1C(=O)N1CCNCC1)c1ccco1	-0.1
14	CC(C)CN(C(=O)c1ccc(S(=O)(=O)N2CCCC2)cc1)C1CCS(=O)(=O)C1 (configuration not stated)	-1.4
15	CCCOP(=O)(OCCC)c1nc(-c2ccccc2)oc1NCc1ccccc1	-1.4
16	CC(=O)NC(=C(Cl)Cl)S(=O)(=O)c1ccccc1	1.5
17	Cc1cc(CSc2ccccc2)ccc1NC(=O)c1ccc(Cl)c([N+](=O)[O-])c1	-1.1
18	COCCn1nnnc1C(CC(C)C)N1CCN(c2ccccc2)CC1 (configuration not stated)	0.5
19	CC(C)(C)NCC(O)COc1ccccc1C(C)(C)C (configuration not stated)	-0.6
20	Cc1cc(C)n(C(=O)CCCCCC(=O)n2nc(C)cc2C)n1	-1.1
21	COCCCN1CC(=O)N2C(c3ccc(C)cc3)c3[nH]c4ccccc4c3C[C@H]2C1=O (some centres not stated)	-0.6
22	CCN(CC)c1cc(Cl)nc(N)n1	-6.0
23	Cc1ccc(Nc2n[nH]c(C)c2[N+](=O)[O-])cc1	-0.5
24	CC(=O)c1ccc(N2CCN(CC(O)COC(c3ccccc3)c3ccccc3)CC2)cc1 (configuration not stated)	-1.8
25	Cc1cccc(C)c1NC(=O)C1c2ccccc2Oc2ccccc21	2.4
26	O=c1oc(-c2ccc([N+](=O)[O-])cc2)nc2ccc(O)cc12	-0.5
27	Cc1ccc(C2C(C#N)=C(N)N(c3cccnc3)C3=C2C(=O)CCC3)s1 (configuration not stated)	-0.2
28	Cc1c(C(=O)N2CCc3ccccc3C2)sc2nc(-c3ccccc3)cn12	0.1
29	COc1ccc(C2Nc3ccccc3C(=O)N2c2ccccc2)cc1COc1ccccn1 (configuration not stated)	-0.9
30	CCO[C@H]1OC(C(=O)Nc2ccccc2)=C[C@@H](c2ccc(Br)cc2)[C@@H]1CCCO	-0.6
31	CCn1c(Cc2ccccc2)nnc1SCc1cccc(C(=O)O)c1	-1.0
32	O=C(c1ccco1)N1CCN(C(c2cccs2)c2nnnn2C2CCCCC2)CC1 (configuration not stated)	3.6
33	Cc1csc(=Nc2cccnc2)n1Cc1ccco1	0.4
34	Nc1ccc(C(=O)N/N=C\C=C\c2ccc([N+](=O)[O-])cc2)cc1	-0.7
35	CC(=O)c1ccc(NC(=O)C2CCCN(S(=O)(=O)c3cccc4nonc34)C2)cc1 (configuration not stated)	-0.4
36	CN(CC(=O)Nc1cccc(F)c1)C(=O)CCc1nc2ccccc2c(=O)[nH]1	-1.3
37	N#Cc1c(NC(=O)CSc2nc3c(c(C(F)(F)F)n2)CCc2ccccc2-3)sc2c1CCCC2	-0.9
38	O=C(NC(=S)Nc1ccc2c(c1)OCCO2)c1ccco1	-0.3
39	CCOC(=O)C1CCCN(CC(=O)Nc2nc(-c3ccccc3)cs2)C1 (configuration not stated)	-1.8
40	Cc1ccc(NC(=O)CN(c2ccccc2F)S(C)(=O)=O)cc1	-1.6
41	COc1ccc2[nH]cc(CCNC(=O)COc3cc(C)cc4oc(=O)cc(C)c34)c2c1	-2.2
42	Cc1ccc(S(=O)(=O)N(C)c2ccc(C(=O)N3CCCCC3)cc2)cc1	3.0
43	Cc1cccc(C)c1OCCNC(=O)c1ccc2ccccc2n1	0.7
44	Cn1c(=O)[nH]c(=O)c2c1nc(CN1CCOCC1)n2Cc1ccccc1	-0.9
45	Cc1cc(C)n2ncc(C(=O)NCc3cccnc3)c2n1	0.4
46	COc1ccc(-c2coc3cc(O)cc(O)c3c2=O)cc1OC	-0.4
47	CCn1c(=O)cc(C(=O)OC)sc1=Nc1ccc(F)c(F)c1	-0.8
48	Cc1[nH]nc(SCC(=O)N2CCCCCC2)c1[N+](=O)[O-]	0.1
49	Brc1cccc(-c2nc3cccnc3nc2-c2cccc(Br)c2)c1	-0.3
50	O=C(O)C(O)c1ccccc1 (configuration not stated)	-0.5&-0.4
51	Cc1nn(-c2cc(Cl)ccc2Cl)c(C)c1C(=O)O	-2.5
52	O=C(Nc1cccc(F)c1)C1CCN(C(=O)c2ccco2)CC1	-1.0
53	O=C(C/C=N\OCc1ccc([N+](=O)[O-])cc1)Nc1ccc(F)cc1F	-0.3
54	O=C(Cc1csc(N2CCOCC2)n1)N/N=C/c1ccc(Cl)cc1Cl	1.1
55	O=C(C(=O)N1CCCC1)c1c[nH]c2ccccc12	0.0
56	COCCN1C(=O)N[C@@H](c2cccc(C(F)(F)F)c2)C(C(=O)OC)=C1C	-0.8
57	Cc1cccc(N2CCN(C(=O)C3CCCCC3)CC2)c1C	-1.6
58	S=c1[nH]nc(C2CC2c2ccc(Cl)cc2)n1-c1ccc(Cl)cc1 (configuration not stated)	0.1
59	CCn1c(Cc2ccccc2)nnc1SCC(=O)Nc1ccccc1F	1.2
60	NNC(=O)c1ccc(Cn2cc(Br)cn2)cc1	0.5

(further entries)
cpd	mol	STK33 kinase inh
61	O=S(=O)(c1ccc2c(c1)OCO2)N1CCN(c2nnnn2-c2ccccc2)CC1	-3.5
62	Cc1ccc(C(=O)NCC2CCCN2S(=O)(=O)c2ccc(C)cc2)cc1 (configuration not stated)	-0.4
63	Cc1cc(Nc2ccc(F)cc2F)n2ncnc2n1	-1.3
64	COc1cc(C(=O)NCCOc2cccc3cccnc23)cc(OC)c1OC	-0.1
65	CN(C)C(CNc1ccc(C(F)(F)F)cn1)c1ccccc1 (configuration not stated)	-0.5
66	CC(=O)c1ccc(OCCOc2ccc(Cl)c3cccnc23)cc1	-0.2
67	CC(=O)Nc1ccc(S(=O)(=O)N2CCC(c3nc4ccc(C)cc4[nH]3)CC2)cc1	-2.4
68	COc1cccc(NC(=O)Cc2ccccc2)c1	0.6
69	N#Cc1cc(-c2ccccc2)oc1NC(=O)c1ccccc1	0.3
70	Cc1ccc(S(=O)(=O)N2CCCCC2)cc1C(=O)OCC(=O)NC(=O)NC12CC3CC(CC(C3)C1)C2	-1.7
71	CCCC(C(=O)NC1CCCC1)N(Cc1cccs1)C(=O)c1snc(C(N)=O)c1N (configuration not stated)	-1.0
72	CC(NS(=O)(=O)OCC(Cl)(Cl)Cl)c1ccc(C(C)(C)C)cc1 (configuration not stated)	1.3
73	CCOC(=O)c1cnc(SC)nc1Sc1ccc(Cl)cc1Cl	-1.7
74	CS(=O)(=O)c1sc(C(=O)NC(=O)Nc2cccc(C(F)(F)F)c2)c2c1C=CCC2	2.8
75	O=C(N/N=C\c1ccc([N+](=O)[O-])o1)C1COc2ccccc2O1 (configuration not stated)	-0.1
76	Fc1cccc(CSc2nc3ccncc3[nH]2)c1	0.3
77	CSc1ccc(CNC(=O)c2c(C)noc2C)s1	-1.3
78	CCOC(=O)N1CCN(C(=O)c2cc(-c3ccc(OCC)cc3)nc3ccccc23)CC1	-0.2
79	On1nnc2c3ccccc3c3ccccc3c21	1.7
80	Cc1ccc(-c2noc(CN3CCOCC3)n2)cc1	0.8
81	CN(C)c1ccc(-c2nnn(CC(=O)NCc3ccc4c(c3)OCO4)n2)cc1	-9.5
82	Cc1cc(OCCCn2cnc3ccccc3c2=O)ccc1[N+](=O)[O-]	-1.9
83	COC(=O)C1C2C=CC(C3CC23)C1C(=O)OCC(=O)c1ccc(OC)cc1 (configuration not stated)	-1.1
84	CCOc1ccc(CN(C)C(=O)c2ccc3ccccc3n2)cc1	-0.1
85	COc1ccccc1NC(=O)Cn1c(CN2CCCCC2)nc2ccccc2c1=O	-1.2
86	N#CC1(Cc2ccc(Cl)cc2)c2ccccc2C=CN1C(=O)c1ccccc1 (configuration not stated)	-1.2
87	S=C1NCN(Cc2ccco2)CN1	-0.4
88	CC(C)CCNS(=O)(=O)c1ccc(-c2ccc(S(=O)(=O)NCCC(C)C)cc2)cc1	-2.2
89	Cn1c(=O)c2c(nc(CN3CCc4ccccc4C3)n2Cc2cccc(Cl)c2)n(C)c1=O	0.0
90	C[C@]12CCC(=O)C=C1[C@H](O)C[C@@H]1[C@@H]2[C@@H](O)C[C@@]2(C)[C@H]1CC[C@]2(O)C(=O)CO	16.3

3 entries from above, arranged by molecular weight, largest number first.
cpd	mol	STK33 kinase inh
85	COc1ccccc1NC(=O)Cn1c(CN2CCCCC2)nc2ccccc2c1=O	-1.2
86	N#CC1(Cc2ccc(Cl)cc2)c2ccccc2C=CN1C(=O)c1ccccc1 (configuration not stated)	-1.2
83	COC(=O)C1C2C=CC(C3CC23)C1C(=O)OCC(=O)c1ccc(OC)cc1 (configuration not stated)	-1.1

Carrying on.
cpd	mol	STK33 kinase inh
91	CNCC(O)COc1cccc(OC)c1 (configuration not stated)	-0.2
92	Cc1ccc(NC(=O)CCn2c(=O)c3cccn3c3ccccc32)c(C)c1	-2.1
93	CCCOc1ccc(C(O)C(CN2CCOCC2)c2ccccc2)cc1 (configuration not stated)	0.8
94	Clc1cccc(CSc2ncn(-c3ccccc3)n2)c1	-0.2
95	O=C(O)COc1ccc(/C=N/NC(=O)c2cn(-c3ccccc3)nc2-c2ccccc2)cc1	-0.2
96	CC(=O)N/C(=C\c1ccccc1)C(=O)OC(C)C(=O)N(C)c1ccccc1 (configuration not stated)	-1.5
97	Cc1noc(C)c1S(=O)(=O)Nc1ccccc1OC(F)(F)F	-2.9
98	N#C/C(=C\c1ccc(OCCN2CCOCC2)cc1)C(=O)Nc1ccccc1F	-0.3
99	CCN(CC)S(=O)(=O)c1cccc(-c2nnc(SCCOc3ccccc3)o2)c1	0.5
100	CN=C1S/C(=C\c2cc(C)n(-c3ccccc3F)c2C)C(=O)N1C	0.4
101	NC(=O)c1cnn2c(-c3ccc(Cl)cc3Cl)ccnc12	-0.1
102	CC(C)CCNC(=O)C1CCN(S(=O)(=O)c2ccc(-n3cnnn3)cc2)CC1	-1.1
103	COc1ccc(CN(C(=O)COc2ccccc2)c2ccccc2C(=O)O)cc1	-2.3
104	O=C(Cc1ccccc1)Nc1cccc(NC(=O)c2ccccc2)c1	-0.1
105	CCCn1c(=O)c(C(=O)NCC2CCCO2)c(O)c2ccccc21 (configuration not stated)	-0.8

The last six entries of the part above open the next one.
cpd	mol	STK33 kinase inh
100	CN=C1S/C(=C\c2cc(C)n(-c3ccccc3F)c2C)C(=O)N1C	0.4
101	NC(=O)c1cnn2c(-c3ccc(Cl)cc3Cl)ccnc12	-0.1
102	CC(C)CCNC(=O)C1CCN(S(=O)(=O)c2ccc(-n3cnnn3)cc2)CC1	-1.1
103	COc1ccc(CN(C(=O)COc2ccccc2)c2ccccc2C(=O)O)cc1	-2.3
104	O=C(Cc1ccccc1)Nc1cccc(NC(=O)c2ccccc2)c1	-0.1
105	CCCn1c(=O)c(C(=O)NCC2CCCO2)c(O)c2ccccc21 (configuration not stated)	-0.8
106	NS(=O)(=O)c1ccc(CNC(=O)c2ccc(Br)o2)cc1	-1.5
107	COc1ccc(C)cc1NC(=O)c1cc2c(=O)n3ccccc3nc2n1C	-1.1
108	Cc1ccc(S(=O)(=O)N2CCN(C(=O)Cc3ccc4c(c3)OCCO4)CC2)cc1C	-1.1
109	CC1(C)CC(=O)C2=C(C1)OC(N)=C(C#N)C2Cc1ccccc1 (configuration not stated)	-0.4
110	Cc1cc(CNC(=O)c2ccc3oc(C(C)C)nc3c2)nn1C	-0.1
111	CC(=O)Nc1ccc(S(=O)(=O)NCCSCc2ccc(Cl)cc2Cl)cc1	1.3
112	CN1C2C=C3C(C#N)=C(N)C(C#N)(C#N)[C@H](c4c(F)cccc4F)[C@H]3C1CC2 (some centres not stated)	1.6
113	COc1ccc(Cl)cc1NC(=O)CSc1nc2sccc2c(=O)[nH]1	-0.1
114	O=C(NCc1ccccc1Cl)C1CCCN1C(=O)NC1CCCCC1 (configuration not stated)	-0.3
115	CCCOC(=O)C(=O)NNc1ccccc1	0.8
116	CCCCCOC(=O)C1=C(C)N(C)C(=O)NC1c1cc(Br)c(O)c(OC)c1 (configuration not stated)	-0.4

The list is partial, and most or all hits are left out here.
